A1 inh: inhibitors of the anti-apoptotic protein A1, read as caspase activation. MEF A1-2A-BIM cells, Caspase-Glo 3/7 luminescence, 3 h; percent of clofoctol response, vehicle zero. caspase activation, % (test concentration not listed). 0.066% of 330,000 active;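 active means over half of replicate activation scores above 10%, or exactly half above 10 with the replicate mean above 10; inconclusive means replicate mean below 10 yet half the replicates above 10; inactive means over half of replicates below 10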;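 further: wells of about 30 µL received 50 nL stock; many hits fall short of the cut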
Calb FLC: C. albicans growth modulation with fluconazole. C. albicans CaCi-2 (fluconazole-resistant clinical isolate) + fluconazole, Alamar Blue growth, 48 h. 0.57% of 300,000 active. growth inhibition, % (test concentration not listed);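 active means most replicates above 75%; inconclusive means exactly half above 75%; inactive means most below 75%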;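 further: all wells also contain fluconazole at 8 µg/ml as a sub-toxic cotreatment; 0% = median of DMSO wells and 100% = median of geldanamycin control wells; wells of about 8 µL received 7.5 nL stock; the first replicate is given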
RanGTP-Impb inh: inhibitors of RanGTP-importin-beta interaction, primary screen, biochemical, FRET, CFP-Ran, YFP-importin-beta, homogeneous; 1.1% of 300,000 active; inhibition, % (concentration not given with the values); cell-free CFP-Ran/YFP-importin-beta FRET ratio;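 active means most replicates above 15%; inconclusive means exactly half above 15%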;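 further: 0% = DMSO wells and 100% = Ran loaded with GDP instead of GTP; wells of about 40 µL received 100 nL stock; the first replicate is given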
LANA-H2B inh: blocks KSHV LANA binding to histone H2A/H2B | inhibition, % (concentration not given with the values) | Q9QR71 | 0.6% of 320,000 active | cell-free LANA-H2A/H2B peptide, fluorescence polarization | AID 2629; in the data active means inhibition mostly above about 10%, no sharp cut-off; inactive means mostly below about 6.7%;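 further: stock transfer was 7.5 nL into about 10 µL; 0% = median of vehicle wells and 100% = median of positive control wells; one replicate is shown; the record names a cut of 25% in any replicate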
AF4-AF9 inh: inhibitors of human MLL-AF4/AF9 interaction. P42568. AlphaScreen, biotin-AF4 peptide binding to FLAG-AF9. inhibition, % at 10 µM. 0.47% of 350,000 active. AID 651704;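 active means every replicate reaching a set inhibition limit, whatever the replicate mean, cut at about 25% in these data; inconclusive means mean inhibition reaches that limit but some replicates miss it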;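 further: 0% = plate neutral control median and 100% = total signal loss; the record names both 10 and 1 µM as test concentration; the first replicate is given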
Target sequence (P42568 whole entry, looked up): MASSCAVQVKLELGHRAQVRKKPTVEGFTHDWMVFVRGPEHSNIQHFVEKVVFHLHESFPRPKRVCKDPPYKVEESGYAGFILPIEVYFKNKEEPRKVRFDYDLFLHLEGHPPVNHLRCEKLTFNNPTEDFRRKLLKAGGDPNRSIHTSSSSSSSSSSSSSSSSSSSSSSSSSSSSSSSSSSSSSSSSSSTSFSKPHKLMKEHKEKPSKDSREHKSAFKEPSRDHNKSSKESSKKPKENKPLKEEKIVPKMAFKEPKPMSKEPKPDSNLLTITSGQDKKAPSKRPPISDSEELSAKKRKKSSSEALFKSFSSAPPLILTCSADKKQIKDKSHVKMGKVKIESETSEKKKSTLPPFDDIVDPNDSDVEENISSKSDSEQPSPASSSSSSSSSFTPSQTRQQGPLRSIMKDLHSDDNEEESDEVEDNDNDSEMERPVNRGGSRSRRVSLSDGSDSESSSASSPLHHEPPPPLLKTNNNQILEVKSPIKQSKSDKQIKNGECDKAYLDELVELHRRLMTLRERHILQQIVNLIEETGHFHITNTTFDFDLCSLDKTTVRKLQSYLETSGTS
T cruzi inh: T. cruzi replication inhibition; AID 1885; inhibition, % (no concentration beside the values); T. cruzi beta-gal in NIH3T3, luminescence, 90 h; 1.4% of 300,000 active;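 active means mean inhibition across valid replicates above about 55%, limit read from the data; inconclusive means mean below that limit but half or more replicates reach it; inactive means mean below it, under half of replicates reach it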;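 further: signal also drops with host cell toxicity which is not excluded here; 0% = plate median of DMSO wells and 100% = zero luminescence signal; higher percent means less beta-gal luminescence so fewer parasites; stock transfer was 50 nL into about 50 µL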
Vif A3G: HIV-1 Vif–A3G interaction blockers – biochemical, TR-FRET, GST-Vif 1-94, biotin-A3G peptide, dose response retest, primary screen (AID 1117319). 0.57% of 260,000 active. TR-FRET GST-Vif / biotin-A3G peptide binding; higher % means a stronger effect; test concentration not given here; strong numbers were not always called active. inhibition, %, or IC50 in µM where a hit was titrated;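 active means above the screen mean plus three standard deviations and confirmed in dose response; inconclusive means results disagree or hit not tested in dose response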;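 further: Vif residues 1-94 fused to GST binding biotinylated APOBEC3G peptide 110-148; 0% = full assay without inhibitor and 100% = GST in place of GST-Vif; retest series ran down from 100 µM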
Beta apoptosis: beta cell apoptosis inhibition | AID 435005 | protection from apoptosis, % (no concentration beside the values) | 0.8% of 300,000 active | INS-1E cytokine-induced death, ATP luminescence, 48 h; percent of positive-control rescue, neutral wells zero;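 active means all replicates at 75% or more, or half of them and the mean; inconclusive means half reach 75% but not the mean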;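 further: 0% = cytokine-treated negative control wells and 100% = positive control rescue; higher means more ATP so stronger rescue from cytokine killing; wells of about 40 µL received 100 nL stock; the first replicate is given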
* hit, by the source's call. Random draw from the library; 4.3% or so of the library scored in one or more.

Results for Cc1cccc2cc(C3CC(c4ccco4)=NN3S(C)(=O)=O)c(Cl)nc12 (stereo not drawn) ?
A1 inh: 0.7; Calb FLC: -5.4; RanGTP-Impb inh: 4.1; LANA-H2B inh: 2.9; AF4-AF9 inh: 15.7; T cruzi inh: 5.5; Beta apoptosis: -10.1

What do the screens show for `Cc1ccc(OS(=O)(=O)c2ccc(N3C(=O)CCC3=O)cc2)cc1`?
A1 inh: 0.8; Calb FLC: -7.6; RanGTP-Impb inh: 1.1; LANA-H2B inh: 4.5; AF4-AF9 inh: -27.0; T cruzi inh: 0.0; Beta apoptosis: -2.9

Results for CCOC(=O)c1sc(NCCNc2nc(C)c(C(=O)OCC)s2)nc1C ?
A1 inh: -0.1; Calb FLC: -15.8; RanGTP-Impb inh: -3.4; LANA-H2B inh: 10.8; T cruzi inh: 3.2; Beta apoptosis: 0.4

Results for O=C(c1ccc(Cn2cc(Br)cn2)o1)n1cccn1 ?
A1 inh: 0.2; Calb FLC: 1.4; RanGTP-Impb inh: -0.5; LANA-H2B inh: -2.3; AF4-AF9 inh: 13.0; T cruzi inh: 0.3; Vif A3G: 7.6%; Beta apoptosis: -23.6

Results for S=C(NC1CC1)N1CCCc2ccccc21 ?
A1 inh: 0.8; Calb FLC: 0.9; RanGTP-Impb inh: 1.7; LANA-H2B inh: 2.0; AF4-AF9 inh: 0.5; T cruzi inh: -5.2; Vif A3G: -7.7%; Beta apoptosis: -12.0

What do the screens show for `CC(C)[C@H](N)c1nnc(SC/C=C/c2ccccc2)o1`?
A1 inh: 1.4; Calb FLC: 23.6; RanGTP-Impb inh: -4.0; LANA-H2B inh: 0.1; T cruzi inh: -22.6; Vif A3G: -2.5%; Beta apoptosis: -6.8

What do the screens show for `CCn1c(SCC(=O)NC2CCCCC2)nnc1C(C)NC(=O)c1ccccc1F` (stereo not drawn)?
A1 inh: 0.5; Calb FLC: -11.6; RanGTP-Impb inh: 4.3; LANA-H2B inh: 1.4; AF4-AF9 inh: -1.6; T cruzi inh: 20.1; Beta apoptosis: -10.7

Results for CC(C)(C)N(Cc1ccccc1)C(=O)COC(=O)CNS(=O)(=O)c1ccc2ccccc2c1 ?
A1 inh: 1.3; LANA-H2B inh: -3.2; AF4-AF9 inh: 0.5; Vif A3G: -6.9%; Beta apoptosis: 1.4

How did Cc1cccc(Oc2sc(C(=O)c3ccccc3)c(N)c2C#N)c1C do in these assays?
A1 inh: -0.2; Calb FLC: 2.1; RanGTP-Impb inh: 1.2; LANA-H2B inh: -2.3; T cruzi inh: 36.3; Vif A3G: -13.1%; Beta apoptosis: -3.8

How did Cc1ccc(C(=O)CNc2ccc(F)cc2)cc1 do in these assays?
A1 inh: -0.6; Calb FLC: -18.6; RanGTP-Impb inh: 1.8; LANA-H2B inh: 1.6; AF4-AF9 inh: 2.4; T cruzi inh: -4.2; Beta apoptosis: -4.0

What do the screens show for `O=C(Nc1cccc(-c2ccc(F)cc2)c1)C1CCCN(Cc2cccnc2)C1` (stereo not drawn)?
A1 inh: 0.0; Calb FLC: 25.8; RanGTP-Impb inh: 3.6; LANA-H2B inh: 4.5; AF4-AF9 inh: 0.9; T cruzi inh: 7.5; Beta apoptosis: 2.0

How did O=C(Nc1ccc(N2CCCCCC2)cc1)c1ccccc1Cl do in these assays?
A1 inh: 0.2; Calb FLC: -15.5; RanGTP-Impb inh: 3.0; LANA-H2B inh: 2.0; AF4-AF9 inh: 22.1; T cruzi inh: -5.1; Vif A3G: 31.2%; Beta apoptosis: 13.0

How did Cc1ccc2cc(C#N)c(N3CCCC3)nc2c1C do in these assays?
A1 inh: -0.5; Calb FLC: -0.6; RanGTP-Impb inh: 26.1*; LANA-H2B inh: -3.3; T cruzi inh: 6.7; Vif A3G: 6.7%; Beta apoptosis: -2.7

Results for COc1ccc(NC2CC(=O)N(c3ccc(C(=O)O)cc3)C2=O)cc1 (stereo not drawn) ?
A1 inh: 0.1; Calb FLC: 12.5; RanGTP-Impb inh: -1.1; LANA-H2B inh: -3.1; AF4-AF9 inh: -0.9; T cruzi inh: -19.5; Beta apoptosis: -3.8

Results for CCOc1ccccc1C(=O)n1nc2nc(C)cc(C)c2c1N ?
A1 inh: 0.0; Calb FLC: 1.3; RanGTP-Impb inh: 4.6; LANA-H2B inh: -50.1; T cruzi inh: -11.3; Vif A3G: -1.2%; Beta apoptosis: 5.7

What do the screens show for `CC(C)[C@H](NC(=O)c1ccco1)C(=O)Nc1ccc(OC(F)F)cc1`?
A1 inh: 0.0; Calb FLC: -18.3; RanGTP-Impb inh: inconclusive; LANA-H2B inh: -1.1; AF4-AF9 inh: -1.6; T cruzi inh: 3.5; Beta apoptosis: -0.1

Results for CCOC(=O)N1CCN(S(=O)(=O)c2ccc(C(=O)Nc3nnc(CC)o3)cc2)CC1 ?
A1 inh: -0.5; Calb FLC: 6.0; RanGTP-Impb inh: 2.5; LANA-H2B inh: 7.1; T cruzi inh: -9.9; Vif A3G: 5.9%; Beta apoptosis: 2.2

How did C=C1CCN([C@H](C(=O)NCc2ccco2)C(C)C)S(=O)(=O)c2ccccc21 do in these assays?
A1 inh: -2.0; Calb FLC: 10.4; RanGTP-Impb inh: -4.0; LANA-H2B inh: -2.4; T cruzi inh: -14.6; Vif A3G: -2.3%; Beta apoptosis: -2.9

Results for CCOc1ccc(-c2csc3ncn(-c4ccc(OC)cc4)c(=O)c23)cc1 ?
A1 inh: 0.5; Calb FLC: 5.0; RanGTP-Impb inh: inconclusive; LANA-H2B inh: 3.9; AF4-AF9 inh: -1.6; T cruzi inh: -4.8; Vif A3G: 9.2%; Beta apoptosis: -1.0

How did Cc1ccc(NC(=O)C2CC2c2ccccc2)cc1 (stereo not drawn) do in these assays?
A1 inh: 0.3; Calb FLC: 5.1; RanGTP-Impb inh: -3.2; LANA-H2B inh: 1.0; AF4-AF9 inh: inconclusive; T cruzi inh: 15.0

What do the screens show for `O=c1c2ccccc2nc(-c2ccccc2)n1CCCn1ccnc1`?
A1 inh: 1.3; Calb FLC: 3.4; RanGTP-Impb inh: -4.5; LANA-H2B inh: -2.5; T cruzi inh: 3.6; Vif A3G: -1.1%; Beta apoptosis: -5.4

Results for COc1ccc(OC)c(NC(=O)CN(c2ccc(C(C)C)cc2)S(=O)(=O)c2c(C)noc2C)c1 ?
A1 inh: 0.1; Calb FLC: 7.3; RanGTP-Impb inh: -5.3; LANA-H2B inh: 1.7; AF4-AF9 inh: -5.3; T cruzi inh: 24.1; Vif A3G: -2.9%; Beta apoptosis: 1.4

Results for C=CCn1c(CSCc2ccc(F)cc2)n[nH]c1=S ?
A1 inh: 0.4; Calb FLC: 7.5; RanGTP-Impb inh: 0.5; LANA-H2B inh: -0.7; AF4-AF9 inh: -11.1; T cruzi inh: 3.9; Vif A3G: 2.9%; Beta apoptosis: -3.4

What do the screens show for `COc1cccc(NC(=O)c2ccc3nsnc3c2)c1`?
A1 inh: -6.9; Calb FLC: -1.6; RanGTP-Impb inh: 7.0; LANA-H2B inh: 2.9; AF4-AF9 inh: -1.5; T cruzi inh: -15.1; Beta apoptosis: -2.2

Results for CCC(C)COC(=O)C(C#N)c1nc2ccccc2nc1N1CCCCC1 (stereo not drawn) ?
A1 inh: 0.3; Calb FLC: 17.7; RanGTP-Impb inh: 23.1*; LANA-H2B inh: -3.1; T cruzi inh: 41.3; Vif A3G: -1.8%; Beta apoptosis: 10.4

How did CN1CCN(c2ccc(S(=O)(=O)N3CCCCC3)cc2NC(=O)CCc2ccccc2)CC1 do in these assays?
A1 inh: 1.2; LANA-H2B inh: -0.2; AF4-AF9 inh: 5.0; Vif A3G: -2.4%; Beta apoptosis: 1.7

What do the screens show for `COC(=O)[C@]1(C)N[C@H](c2ccc(-c3cccc(Cl)c3)c(OC)c2)[C@@H]2C(=O)N(C)C(=O)[C@@H]21`?
A1 inh: 0.5; LANA-H2B inh: -8.2; AF4-AF9 inh: 3.9; Beta apoptosis: -5.6

How did Cc1ccc(C)c(N(CC(=O)Nc2ccc(-c3nc4ccc(C)cc4s3)cc2)S(C)(=O)=O)c1 do in these assays?
A1 inh: -0.3; Calb FLC: 2.2; RanGTP-Impb inh: 2.9; LANA-H2B inh: 1.2; AF4-AF9 inh: 5.9; T cruzi inh: 65.4*; Vif A3G: 25.4%; Beta apoptosis: 1.1

Results for Cn1nc(C(F)(F)F)c(C#N)c1N1CCN(c2ccccc2F)CC1 ?
A1 inh: 0.3; Calb FLC: 5.0; RanGTP-Impb inh: -1.2; LANA-H2B inh: -5.1; T cruzi inh: 14.8; Vif A3G: 0.5%; Beta apoptosis: 0.2

What do the screens show for `O=C(O)Cc1ccc(O)c(O)c1`?
A1 inh: -0.6; Calb FLC: -10.1; RanGTP-Impb inh: -1.2; LANA-H2B inh: -2.9; AF4-AF9 inh: 3.5; T cruzi inh: inconclusive; Vif A3G: 2.2%; Beta apoptosis: -5.0

What do the screens show for `CC(C)(C)NC(=O)CN(C(=O)CS(=O)CC(=O)Nc1ccc(F)cc1)c1ccccc1` (stereo not drawn)?
A1 inh: 0.4; Calb FLC: 4.8; RanGTP-Impb inh: 5.8; LANA-H2B inh: -0.8; T cruzi inh: -18.5; Vif A3G: -3.1%; Beta apoptosis: -7.0

How did O=C(CN(Cc1ccccc1Cl)C(=O)c1csnn1)NCc1ccccc1 do in these assays?
A1 inh: 0.1; Calb FLC: 11.6; RanGTP-Impb inh: -3.2; LANA-H2B inh: -1.3; AF4-AF9 inh: -1.4; T cruzi inh: 12.2; Vif A3G: -5.0%; Beta apoptosis: 3.3

How did Cc1c(C)n(CC(O)CN(CCO)CCO)c2ccccc12 (stereo not drawn) do in these assays?
A1 inh: -0.9; Calb FLC: inconclusive; RanGTP-Impb inh: 2.7; LANA-H2B inh: -2.2; AF4-AF9 inh: 7.7; T cruzi inh: -2.6; Vif A3G: -0.9%; Beta apoptosis: 0.9

What do the screens show for `CCCCOC1(c2ccccc2)NC(=S)NN=C1c1ccccc1` (stereo not drawn)?
A1 inh: -0.1; Calb FLC: 24.9; RanGTP-Impb inh: -2.0; LANA-H2B inh: 0.3; T cruzi inh: -16.0; Vif A3G: 8.6%; Beta apoptosis: 2.0

Results for CC(Sc1nnc2ccccn12)C(=O)N1CCc2ccccc2C1 (stereo not drawn) ?
A1 inh: 0.0; Calb FLC: -9.7; RanGTP-Impb inh: -1.1; LANA-H2B inh: 1.1; T cruzi inh: -12.6; Vif A3G: -3.5%; Beta apoptosis: -3.0

What do the screens show for `CCOC(=O)c1cc(-c2ccc(OC)cc2)n(CCC(=O)NC2CCN(Cc3ccccc3)CC2)c1C`?
A1 inh: -0.4; Calb FLC: 4.8; RanGTP-Impb inh: -0.4; LANA-H2B inh: 1.7; AF4-AF9 inh: 14.6; T cruzi inh: 45.1; Vif A3G: 1.1%; Beta apoptosis: 6.0

How did Cc1cc(-n2c(C)cc(C(=O)COc3ccc(F)c(F)c3)c2C)no1 do in these assays?
A1 inh: -5.8; LANA-H2B inh: 1.1; Vif A3G: 8.2%; Beta apoptosis: 4.8

Results for COc1ccc2nc(NC(=O)c3ccc4ncsc4c3)sc2c1 ?
A1 inh: -0.6; Calb FLC: 8.9; RanGTP-Impb inh: 8.8; LANA-H2B inh: 0.2; T cruzi inh: 13.3; Vif A3G: 18.5%; Beta apoptosis: 10.8
